From PubChem
Beta cell apopt = inhibitors of cytokine-induced beta cell apoptosis, primary screen, luminescence; protection from apoptosis, % (concentration not given with the values); INS-1E cytokine-induced death, ATP luminescence, 48 h; percent of positive-control rescue, neutral wells zero; AID 435005, 2010; 300,000 compounds, 0.8% hits;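 active = all replicates at 75% or more, or half of them and the mean; inconclusive = half reach 75% but not the mean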;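 note: 0% = cytokine-treated negative control wells and 100% = positive control rescue; higher means more ATP so stronger rescue from cytokine killing; wells of about 40 µL received 100 nL stock; the first replicate is given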
Bfl-1 A1 inh = caspase 3/7 activation in MEF A1-2A-BIM cells, primary screen, A1 inhibitor project, cell-based, luminescence, HTS | AID 2462, 2010 | caspase activation, % (concentration not given with the values) | Caspase-Glo 3/7 luminescence, 3 h; percent of clofoctol response, vehicle zero | 330,000 compounds, 0.066% hits;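 active = over half of replicate activation scores above 10%, or exactly half above 10 with the replicate mean above 10; inconclusive = replicate mean below 10 yet half the replicates above 10; inactive = over half of replicates below 10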;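 note: wells of about 30 µL received 50 nL stock; many hits fall short of the cut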
UCH37 inh = inhibitors of human UCH37 deubiquitinase, primary screen, biochemical, Ub-AMC cleavage, fluorescence. Ubiquitin carboxyl-terminal hydrolase isozyme L5 (Homo sapiens), Q9Y5K5. purified proteasome/UCH37. inhibition, % (no concentration beside the values). 330,000 compounds, 0.33% hits;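 active = mean of two replicates above 20%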;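 note: 0% = compound-free wells with enzyme and 100% = wells lacking proteasome; stock transfer was 100 nL into about 20 µL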
Target sequence (Q9Y5K5 whole entry, looked up): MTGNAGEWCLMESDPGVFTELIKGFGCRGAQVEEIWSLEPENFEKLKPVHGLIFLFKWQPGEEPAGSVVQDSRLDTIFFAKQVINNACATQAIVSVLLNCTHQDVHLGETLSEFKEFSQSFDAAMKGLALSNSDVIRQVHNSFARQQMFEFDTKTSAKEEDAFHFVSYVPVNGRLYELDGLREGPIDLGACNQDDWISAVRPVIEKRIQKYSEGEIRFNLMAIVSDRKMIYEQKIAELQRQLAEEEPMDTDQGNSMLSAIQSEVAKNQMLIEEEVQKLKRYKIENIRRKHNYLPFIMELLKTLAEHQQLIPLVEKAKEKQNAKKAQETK
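Material: human UCH37 enzyme supplied as purified proteasome complex / Amount: 0.15 nM proteasome as dispensed / Buffer or medium: pH 7.4 Tris-HCl (50 mM) with ovalbumin, ATP-MgCl2, DTT / Times: preincubation 30 min, reaction 25 min, room temperature / Technique: AMC fluorescence from Ub-AMC cleavage, excitation 355 nm, emission 460 nm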
rRNA inh HTS = reduced GFP signal of wild-type E. coli, primary screen, bacterial rRNA inhibitor project, GFP/RFP fluorescence, OD600, single point | E. coli WT GFP vs humanized-ribosome RFP mutants, 24 h; stronger effect = lower value; DMSO median 0, no signal -100 | AID 720706, 2013 | 350,000 compounds, 1.6% hits | GFP signal change (wild-type ribosome), % (concentration not given with the values);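 active = significant combined selectivity score with lowered wild-type GFP, culture density cut under 30%, mutant RFP and density less affected; inactive = any of these conditions unmet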; note: one replicate is shown; some compounds called inactive have numbers as strong as hits
MLL AF4-AF9 inh = inhibitors of AF4 peptide binding to AF9, primary screen, biochemical, AlphaScreen, biotin-AF4 peptide, FLAG-AF9, single point; inhibition, % at 10 µM; 350,000 compounds, 0.47% hits;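 active = every replicate reaching a set inhibition limit, whatever the replicate mean, cut at about 25% in these data; inconclusive = mean inhibition reaches that limit but some replicates miss it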;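 note: 0% = plate neutral control median and 100% = total signal loss; the record names both 10 and 1 µM as test concentration; the first replicate is given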
Target sequence (P42568 whole entry, looked up): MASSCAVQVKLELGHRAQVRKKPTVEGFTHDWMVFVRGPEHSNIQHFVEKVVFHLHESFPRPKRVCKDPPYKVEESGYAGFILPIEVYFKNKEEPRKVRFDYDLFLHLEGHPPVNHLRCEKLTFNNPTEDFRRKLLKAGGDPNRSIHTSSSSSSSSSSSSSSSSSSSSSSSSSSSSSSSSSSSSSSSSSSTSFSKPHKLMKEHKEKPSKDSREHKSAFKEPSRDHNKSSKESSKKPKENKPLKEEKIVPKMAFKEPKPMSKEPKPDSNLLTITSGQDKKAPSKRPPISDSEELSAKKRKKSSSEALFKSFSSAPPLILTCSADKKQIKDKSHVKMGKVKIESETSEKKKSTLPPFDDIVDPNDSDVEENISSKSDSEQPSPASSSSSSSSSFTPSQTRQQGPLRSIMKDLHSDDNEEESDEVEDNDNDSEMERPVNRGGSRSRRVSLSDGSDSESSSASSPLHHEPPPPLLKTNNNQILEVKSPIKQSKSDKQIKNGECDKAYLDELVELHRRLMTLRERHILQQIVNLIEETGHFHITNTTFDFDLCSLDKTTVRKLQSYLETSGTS
E coli growth = E. coli growth inhibition, primary screen, OD600; 330,000 compounds, 0.21% hits; AID 1053175, 2014; OD600 absorbance (concentration not given with the values); Escherichia coli growth, 23 h; stronger effect = lower value;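 active = OD600 absorbance below the run mean of sample wells minus 3.6 SD, in any replicate, cut at about 0.56 in these data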;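 note: stock transfer was 300 nL into about 60 µL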
FGF22 binding = binders of human FGF22 protein, primary screen, FGF22 synaptogenesis inhibitor project, biophysical, thermal shift, single point; recombinant FGF22 thermal shift, SYPRO orange fluorescence; percent of sucrose octasulfate shift, DMSO zero; 340,000 compounds, 1.5% hits; calls only at 9.99 µM; AID 651658, 2012; Fibroblast growth factor 22 (Homo sapiens), Q9HCT0;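 active = melting point raised past a set limit in the mean and every replicate; inconclusive = no clear call; three in four hits are not shown here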
Target sequence (Q9HCT0 whole entry, looked up): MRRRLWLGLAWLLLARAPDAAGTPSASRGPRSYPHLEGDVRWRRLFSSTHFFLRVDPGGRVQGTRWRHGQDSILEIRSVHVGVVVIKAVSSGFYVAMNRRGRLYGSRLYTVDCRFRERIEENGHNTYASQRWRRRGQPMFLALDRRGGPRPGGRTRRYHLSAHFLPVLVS
T cruzi inh = inhibitors of intracellular T. cruzi growth, primary screen, luminescence, NIH3T3 host cells; T. cruzi beta-gal in NIH3T3, 90 h; inhibition, % (concentration not given with the values); 300,000 compounds, 1.4% hits; AID 1885, 2009;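 active = mean inhibition across valid replicates above about 55%, limit read from the data; inconclusive = mean below that limit but half or more replicates reach it; inactive = mean below it, under half of replicates reach it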;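 note: signal also drops with host cell toxicity which is not excluded here; 0% = plate median of DMSO wells and 100% = zero luminescence signal; higher percent means less beta-gal luminescence so fewer parasites; stock transfer was 50 nL into about 50 µL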
rRNA inh HTS OD600 = second read-out of rRNA inh HTS, no call of its own (marks repeat the call); OD600 change, %; measured here: OD600 growth;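 optical density of the mix in the first replicate; 0 = DMSO median and -100 = no signal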
rRNA inh HTS RFP = recorded beside rRNA inh HTS, whose call it bears; RFP signal change, %; measured here: RFP humanized mutant strains;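 first replicate; 0 = DMSO median and -100 = no signal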
Active calls of the source: *; i = inactive; u = inconclusive; x = no result given. Some of the compounds tested. The share of hits here may be higher or lower than overall.

#1 CC(=O)Nc1ccc(S(C)(=O)=O)c(C)c1
#2 CCc1cc(-c2n[nH]c(C)c2-c2nc3ccccc3s2)c(O)cc1OCC(=O)NN
#3 Cc1ccc2c(c1)C(=O)CCN2
#4 N/C(=N\OC(=O)Cc1ccc(Cl)cc1)c1ccncc1
#5 COc1ccc(CSc2nncn2C)cc1F
#6 CCc1ccccc1NC(=O)NNS(=O)(=O)c1cc(C)ccc1C
Screen / compound no.	1	2	3	4	5	6
E coli growth	0.671	0.686	0.628	0.737	0.682	0.708
MLL AF4-AF9 inh	-2.9	2.1	0.1	3.2	-1.3	-1.3
UCH37 inh	1.5	2.9	0.1	4.9	1.2	2.0
T cruzi inh	-10.3	-16.9	2.7	19.8	-2.0	-15.4
rRNA inh HTS OD600	5.9	4.8	2.7	-0.7*	6.0	-16.8
rRNA inh HTS RFP	-0.4	-2.1	-4.2	-2.3*	-2.2	1.6
Bfl-1 A1 inh	-0.5	-0.4	-0.9	-0.4	0.6	0.6
FGF22 binding	i	i	i	i	i	i
rRNA inh HTS	-0.4	1.6	3.9	-21.5*	0.9	-13.6
Beta cell apopt	-20.2	-8.4	0.0	-6.2	2.5	-13.4

#7 O=S(=O)(c1ccc(Cl)cc1)N1CCN(c2ncnc3sccc23)CC1
#8 Cc1nn(CC(=O)Nc2cccc(Cl)c2)c(=O)c2cc(-c3ccccc3)nn12
#9 CN(Cc1ccccc1)C(=O)CC(=O)N(C)Cc1ccccc1
#10 CCOc1ccccc1N=Cc1c(O)n(C)c(=O)n(C)c1=O
#11 CCc1ccc(NC(=O)c2sccc2-n2cccc2)cc1
#12 O=C(CNS(=O)(=O)c1ccc(F)cc1)Nc1ccccc1
Screen / compound no.	7	8	9	10	11	12
E coli growth	0.69	0.66	0.672	0.683	0.722	0.653
MLL AF4-AF9 inh	0.7	-0.9	0.6	-0.3	x	-4.9
UCH37 inh	0.8	-2.2	4.3	i	1.6	-0.4
T cruzi inh	x	32.7	-8.3	-16.1	-3.0	-14.0
rRNA inh HTS OD600	-26.1	9.2	8.8	17.8	x	4.8
rRNA inh HTS RFP	-0.4	3.4	0.9	2.1	x	-0.6
Bfl-1 A1 inh	-1.7	0.9	1.3	x	-0.4	-0.1
FGF22 binding	i	i	i	i	x	i
rRNA inh HTS	-6.4	5.0	6.2	22.6	x	3.1
Beta cell apopt	83.4*	-4.4	x	x	-0.8	-3.5

#13 CC(C)C[C@H]1CN=C(Nc2ccccc2)N1CCCCc1ccccc1
#14 CCC(CO)NC(=O)c1ccc(-c2nn(C)c(=O)c3ccccc23)cc1 (centres undefined)
#15 Cc1nc2cc(C(=O)O)ccc2n1-c1ccc(F)cc1F
#16 Cc1ccc(SCC(=O)NC2CCS(=O)(=O)C2)cc1C (centres undefined)
#17 O=Cc1cc(CCC(=O)O)ccc1O
#18 Cc1c(O)ccc(C(=O)CN2CCN(c3ccc(F)cc3)CC2)c1O
Screen / compound no.	13	14	15	16	17	18
E coli growth	x	0.708	0.785	0.686	0.614	0.691
MLL AF4-AF9 inh	2.6	x	x	-1.4	x	-0.3
UCH37 inh	4.0	4.5	1.6	0.2	3.8	-3.2
T cruzi inh	12.1	-7.9	-18.1	x	4.0	-5.8
rRNA inh HTS OD600	-65.8	x	x	9.0	0.0	6.6
rRNA inh HTS RFP	10.8	x	x	-3.9	2.1	0.5
Bfl-1 A1 inh	-0.3	1.6	-0.9	-0.8	1.9	2.0
FGF22 binding	i	x	x	i	i	i
rRNA inh HTS	-42.9	x	x	1.4	-7.0	0.4
Beta cell apopt	6.1	-2.1	-6.5	-4.0	-7.1	-9.9

#19 COc1ccccc1N(C(=O)c1ccco1)C(C(=O)NC1CCCC1)c1cccs1 (centres undefined)
#20 O=C(NNC(=O)c1sccc1-n1cccc1)c1cccc(Cl)c1
#21 COc1ccc(N2CCN(c3nc4c(C)cccn4c(=O)c3C=C(C#N)C#N)CC2)cc1
#22 CCS(=O)(=O)c1ccc(N=Nc2ccc(O)c3ncccc23)c(OC)c1
#23 CCn1c(C)c(CCC(=O)O)c(=O)n2nc(-c3ccccc3OC)cc12
#24 CCOC(=O)COc1ccc(-c2nnc(-c3ccccc3)o2)cc1
Screen / compound no.	19	20	21	22	23	24
E coli growth	0.713	0.788	0.702	0.723	0.682	0.635
MLL AF4-AF9 inh	-0.1	x	-5.7	u	x	x
UCH37 inh	6.0	-0.1	-0.2	12.7	-48.5	-1.6
T cruzi inh	14.5	x	-0.1	26.1	-6.6	-25.4
rRNA inh HTS OD600	-8.4	x	3.6	14.0	x	x
rRNA inh HTS RFP	1.3	x	-2.1	-1.6	x	x
Bfl-1 A1 inh	0.4	-1.0	x	x	1.9	-6.1
FGF22 binding	i	x	i	x	x	x
rRNA inh HTS	0.8	x	4.6	16.1	x	x
Beta cell apopt	-1.5	1.3	x	x	3.0	5.1

#25 CC1=C(C(=O)Nc2ccccc2C(=O)N2CCCCC2)SCCO1
#26 O=c1c(-c2ccc(Br)cc2)[n+]([O-])c2ccccc2n1OCc1ccccc1
#27 O=C(NCc1nc2ccccc2[nH]1)c1ccc(Cl)c(S(=O)(=O)N2CCCC2)c1
#28 COCP(=O)(c1ccccc1)c1ccccc1
#29 O=C(c1ccccc1)N1CCN(S(=O)(=O)c2cccs2)CC1
#30 Cc1cccc(N2CCN(S(=O)(=O)c3c(C)noc3/C=C/N(C)C)CC2)c1C
Screen / compound no.	25	26	27	28	29	30
E coli growth	0.66	0.644	0.648	0.726	0.656	0.728
MLL AF4-AF9 inh	1.2	-2.4	x	x	-1.5	-0.7
UCH37 inh	1.1	-0.2	-0.8	3.5	1.2	0.9
T cruzi inh	-9.3	-2.8	28.3	6.5	-0.7	10.5
rRNA inh HTS OD600	8.9	12.1	x	x	5.1	10.0
rRNA inh HTS RFP	-1.1	0.5	x	x	2.3	3.8
Bfl-1 A1 inh	u	1.4	-0.3	1.2	-0.3	0.1
FGF22 binding	i	i	x	x	i	i
rRNA inh HTS	3.5	5.3	x	x	10.6	9.2
Beta cell apopt	-1.7	-7.9	-0.6	6.8	2.1	0.0

#31 COc1cc(CC(=O)Nc2ccc3nc(C)sc3c2)cc(OC)c1OC
#32 COc1ccc2c(c1)c1ccccc1n2C
#33 Nc1nnc(SCc2cccnc2)s1
#34 CCOc1cc(/C=C(\C#N)C(=O)Nc2ccccc2C(=O)O)ccc1OC(=O)c1ccc(C)cc1
#35 COc1ccc(C2=NN(Cc3c(F)cccc3Cl)C(=O)CC2)cc1
#36 O=[N+]([O-])c1cccc(/C=C/c2ccccn2)c1
Screen / compound no.	31	32	33	34	35	36
E coli growth	0.684	0.673	0.67	x	0.64	0.621
MLL AF4-AF9 inh	-5.5	x	x	-1.5	-21.0	1.3
UCH37 inh	1.3	-6.9	1.1	x	1.2	3.6
T cruzi inh	-7.8	-8.7	-3.5	-3.5	-5.2	7.6
rRNA inh HTS OD600	-17.4	x	x	13.7	-21.0	-1.2
rRNA inh HTS RFP	-5.2	x	x	-0.9	4.2	-2.2
Bfl-1 A1 inh	0.4	0.5	-0.1	u	0.0	-7.6
FGF22 binding	i	x	x	i	i	i
rRNA inh HTS	-18.1	x	x	12.2	-25.6	2.4
Beta cell apopt	-6.3	-2.6	-4.7	-4.4	2.8	-0.2

Full records, quoted from the list. Values in the order: E coli growth, MLL AF4-AF9 inh, UCH37 inh, T cruzi inh, rRNA inh HTS OD600, rRNA inh HTS RFP, Bfl-1 A1 inh, FGF22 binding, rRNA inh HTS, Beta cell apopt
O=[N+]([O-])c1cccc(/C=C/c2ccccn2)c1 reads 0.621, 1.3, 3.6, 7.6, -1.2, -2.2, -7.6, i, 2.4, -0.2
Nc1nnc(SCc2cccnc2)s1 reads 0.67, x, 1.1, -3.5, x, x, -0.1, x, x, -4.7

Further entries
#37 CC1(C)CC2CC(C)(CN2S(=O)(=O)c2cccc(C(=O)O)c2)C1 (centres undefined)
#38 C#CCOCCOCCOCCNc1nc(N2CCN(C(=O)C([C@@H](C)O)n3cc([C@@H](N)CCCCN)nn3)CC2)nc(N2CCN(C(=O)C([C@@H](C)O)n3cc([C@@H](N)CCCCN)nn3)CC2)n1 (some centres undefined)
#39 COCCNC(=O)c1nc2c(nnn2Cc2cc(C)ccc2C)c(=O)[nH]1
#40 O=C(Nc1ccc(Cl)cn1)c1ccccc1SCc1ccccc1
#41 O=C(NN1CC(=O)N(c2cc(Cl)cc(Cl)c2)CC1=O)c1cccs1
#42 COc1cc(CC(=O)O)c(C(C)=O)cc1OC
Screen / compound no.	37	38	39	40	41	42
E coli growth	0.691	x	0.715	0.629	0.684	0.717
MLL AF4-AF9 inh	-1.9	39.0*	4.4	-0.1	-8.6	x
UCH37 inh	0.7	5.3	5.5	7.1	2.0	1.8
T cruzi inh	x	x	15.6	15.1	-6.3	-19.0
rRNA inh HTS OD600	x	14.5	-2.7	4.2	3.5	x
rRNA inh HTS RFP	x	5.2	7.3	3.2	-3.3	x
Bfl-1 A1 inh	0.0	-0.5	0.0	-1.0	0.2	u
FGF22 binding	i	i	i	i	i	x
rRNA inh HTS	x	8.6	5.8	-7.7	1.8	x
Beta cell apopt	-3.7	-4.7	4.2	4.5	0.7	-4.5

#43 O=C(NNC(=O)C1CCC(C(=O)NNC(=O)c2cccs2)CC1)c1cccs1 (centres undefined)
#44 COC(=O)C1=C(O)/C(=C\c2ccc(CNC(=O)C(=O)Nc3ccc(C)cc3)o2)N=C1C
#45 O=C(NCc1nnc(SCC(=O)N2CCCCCC2)o1)c1ccc(F)cc1
#46 CCc1nnc(NC(=O)CSc2nc(-c3ccccc3)cc(-c3ccc(F)cc3)c2C#N)s1
Screen / compound no.	43	44	45	46
E coli growth	0.71	0.748	0.653	0.714
MLL AF4-AF9 inh	2.0	x	0.4	x
UCH37 inh	3.9	4.0	3.0	-45.7
T cruzi inh	5.6	-14.5	-0.2	1.6
rRNA inh HTS OD600	5.1	x	9.7	x
rRNA inh HTS RFP	6.0	x	2.8	x
Bfl-1 A1 inh	0.2	0.3	0.2	7.1*
FGF22 binding	i	x	i	x
rRNA inh HTS	6.8	x	3.7	x
Beta cell apopt	-3.3	-0.5	-3.2	4.0
